Lassa entry inh: qHTS for Inhibitors of binding or entry into cells for Lassa Virus; 300,000 compounds, 1.2% hits; Lassa virus pseudotype entry inhibition, cell reporter; control for the full effect not named in the record; Potency, µM (titrated, usually from 37.9 µM), inactives show at the highest dose activity change, negative = inhibition, hits mostly inhibitors; AID 540256, 2011; active means well fitted inhibition curve with a large enough effect; inconclusive means small, poorly fitted or top-dose-only effect, or effect the other way; inactive means flat fitted curve, though single readings scatter; tested in HEK293 cells; note: % is set by controls: 0 for no effect and ±100 for the full control effect; nearly all actives have a fitted effect of over 50% in size; luciferase read-out
Cruzain inh noDet: qHTS Assay for Promiscuous and Specific Inhibitors of Cruzain (without detergent); Potency, µM, without a hit: max response, negative = inhibition, most hits filed as inhibitors; Cruzipain (Trypanosoma cruzi), P25779; AID 1476, 2009; 200,000 compounds, 2.3% hits; purified cruzain, Z-FR-AMC fluorescence, no detergent; active = well fitted curve in the direction sought with a large enough effect; inconclusive = small, poorly fitted or top-dose-only effect, or another doubt; inactive = no such curve, though single readings can be large; an effect the other way counts as inactive or inconclusive;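 note: plate controls were enzyme without inhibitor for no effect and buffer without enzyme for full effect; nearly all actives have a fitted effect of over 40% in size; top concentration of the series not given in the record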
Target sequence (P25779 123-467 limits assumed): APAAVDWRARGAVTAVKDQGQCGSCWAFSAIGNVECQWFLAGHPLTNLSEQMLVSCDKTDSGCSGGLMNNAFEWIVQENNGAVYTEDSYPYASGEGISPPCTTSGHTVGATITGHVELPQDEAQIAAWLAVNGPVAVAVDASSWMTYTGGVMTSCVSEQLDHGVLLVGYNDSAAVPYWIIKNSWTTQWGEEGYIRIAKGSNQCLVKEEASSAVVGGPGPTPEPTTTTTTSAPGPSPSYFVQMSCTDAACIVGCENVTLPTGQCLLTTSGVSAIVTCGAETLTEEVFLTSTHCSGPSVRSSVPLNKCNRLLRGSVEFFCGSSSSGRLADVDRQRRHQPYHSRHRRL
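Purified cruzain at 1.5 nM, pre-incubated 15 min with compound at room temperature in 100 mM sodium acetate pH 5.5, 5 mM DTT, 0.00005% Triton X-100. Reaction started with 2 uM Z-FR-AMC; AMC fluorescence increase over 60 s gives rate.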
2A StopGo: High Throughput Screening for Foot and Mouth Disease Virus Antivirals. human cells with a luciferase reporter of 2A StopGo recoding; control for the full effect not named in the record. Potency, µM (highest dose often 57.9 µM), inactives show at the top dose signal change, negative = less light. 410,000 compounds, 1.2% hits; active = well fitted falling curve with a large enough effect; inconclusive = small, poorly fitted or top-dose-only effect; inactive = no such curve, though single readings can be large or run the other way; tested in HEK293T cells; note: % is set by controls: 0 for no effect and ±100 for the full control effect; nearly all actives have a fitted effect of over 45% in size; luciferase light after 4 h
NS1 inh: qHTS Assay for Inhibitors of Influenza NS1 Protein Function. Potency, µM (top dose mostly 46.1 µM), inactives show top-dose activity, positive = more growth. 270,000 compounds, 0.4% hits. S. cerevisiae slowed by influenza A NS1, growth recovery by OD600; note: actives are rising curves; nearly all actives have a fitted effect of over 50% in size
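Read-out: OD600 growth recovery of NS1-expressing budding yeast. Cells grown overnight at 30C in -URA glucose medium, washed, resuspended and diluted 1:100 in 2% galactose assay medium, pH 6.0. Same strain lacking NS1 served as positive control.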
SARS PLP yeast: qHTS of Yeast-based Assay for SARS-CoV PLP. Potency, µM (series often up to 32.9 µM), for the others: top-dose activity, positive = growth rescue. S. cerevisiae expressing SARS-CoV PLpro, growth rescue; control for the full effect not named in the record. 330,000 compounds, 0.19% hits; note: 0% is about no effect; nearly all actives have a fitted effect of over 55% in size; growth read by luminescence after 48 h
RE007 growth inh: qHTS Assay for Inhibitors of the HIV-1 protein Vpr; S. pombe RE007 Vpr strain, BacTiter-Glo ATP luminescence, 24 h; control for the full effect not named in the record; Potency, µM (top dose mostly 92.2 µM), for inactives: at the top dose activity change, negative = less growth; 360,000 compounds, 0.21% hits; AID 651644, 2012; active = well fitted falling curve with a large enough effect; inconclusive = small, poorly fitted or top-dose-only effect; inactive = no such curve, though single readings can be large or run the other way;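 note: % is set by controls: 0 for no effect and ±100 for the full control effect; nearly all actives have a fitted effect of over 50% in size; the assay follows cell death caused by Vpr and the record does not say whether a fall means rescue or toxicity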
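Fission yeast strain RE007, carrying one chromosomally integrated HIV-1 vpr copy, was seeded at OD 0.01 in PMG+AL medium with 23 nL pinned compound. After 24 h at 30 °C and 99% humidity, viability was read by BacTiter-Glo luminescence.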
Marburg entry inh: qHTS for inhibitors of binding or entry into cells for Marburg Virus; Marburg virus pseudotyped entry inhibition, cell reporter; control for the full effect not named in the record; about a third of the inactives were read at about 46 µM; Potency, µM (series often up to 37.8 µM), inactives show at the highest dose activity change, negative = inhibition, hits mostly inhibitors; 300,000 compounds, 1.8% hits; active = well fitted inhibition curve with a large enough effect; inconclusive = small, poorly fitted or top-dose-only effect, or effect the other way; inactive = flat fitted curve, though single readings scatter; tested in HEK293 cells; about a fifth of its hits are not listed in these tables; note: % is set by controls: 0 for no effect and ±100 for the full control effect; luciferase read-out
Cruzain Triton: qHTS Assay for Promiscuous and Specific Inhibitors of Cruzain (with detergent). Potency, µM, for inactives: max response, negative = inhibition, usual class: inhibitors. AID 1478, 2009. Cruzipain (Trypanosoma cruzi), P25779. purified cruzain, Z-FR-AMC fluorescence, 0.01% Triton. 200,000 compounds, 0.43% hits; active = well fitted curve in the direction sought with a large enough effect; inconclusive = small, poorly fitted or top-dose-only effect, or another doubt; inactive = no such curve, though single readings can be large; an effect the other way counts as inactive or inconclusive;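 note: plate controls were neutral wells for no effect and buffer without enzyme for full effect; nearly all actives have a fitted effect of over 40% in size; top concentration of the series not given in the record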
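In this qHTS format, compounds are incubated with 1.5 nM cruzain for 15 min at room temperature before 2 uM Z-FR-AMC is added. Release of AMC is followed at 360/450 nm, and progress is taken as the 60 s fluorescence difference.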
Numbers without * were called inactive; ? = inconclusive; . = not tested or not shown; & = joins results of further samples; [ ] = remark or other dose. Unless noted, calls come from the whole dose curve; as a rule, active means well fitted rising curve with a large enough effect; inconclusive means small, poorly fitted or top-dose-only effect; inactive means no such curve, though single readings can be large or run the other way. Potency is the fitted concentration of half-maximal effect.

molecule	Marburg entry inh	Lassa entry inh	Cruzain inh noDet	SARS PLP yeast	Cruzain Triton	2A StopGo	RE007 growth inh	NS1 inh
Cc1ccc(C(=O)N/C(=C\c2cn(S(=O)(=O)N(C)C)c3ccccc23)C(=O)N2CCCC2)cc1	.	.	.	0%	.	-2%	3%	27%
O=S(=O)(Cc1ccccc1)N1CCN(Cc2ccc(Br)cc2)CC1	9%	0%	.	-5%	.	-28%	7%	-14%
COC(=O)c1cc2oc3ccccc3c2n1CC(=O)Nc1ccc(F)c(Cl)c1	-14%[46.1 µM]	.	-10%	.	-3.7%	-11%	.	.
O=C1c2oc3ccccc3c(=O)c2C(c2cccc(O)c2)N1c1ccccn1 (stereo not drawn)	.	.	-8%	-1%	-3.0%	-11%	4%	-46%
COc1ccc(C2(C)NC(=O)N(CC(=O)NCc3ccccc3F)C2=O)cc1 (stereo not drawn)	2%[46.1 µM]	24%	.	1%	.	2%	-1%	-6%
COc1ccccc1/C=C1\SC(=S)N(CCC(=O)NC2=NCCS2)C1=O	?	-9%	?	4µM*	-4.7%	?	1%	8%
COc1ccc(C(=O)NCC(C)C)c(OC)c1	1%	4%	5%	5%	0.5%	34%[activator]	0%	1%
CCCC(=O)N=C1SC2CS(=O)(=O)CC2N1c1ccc(-c2nc3ccc(C)cc3s2)cc1 (stereo not drawn)	?	?	-17%	28%	-3.5%	43%[activator]	11%	15%
O=[N+]([O-])c1cccc(/C=N/NC2=NS(=O)(=O)c3ccccc32)c1	6%[46.1 µM]	-10%	.	0%	.	14%	7%	.
COc1ccc(CNc2ncnc3c2cnn3-c2ccc(C)c(C)c2)cc1	.	4%[46.1 µM]	11%	.	4.9%	39%[activator]	.	.
CCN(CC)c1ccc(NC(=O)c2ccc3c(c2)OCO3)cc1	?	-11%[46.1 µM]	.	?	.	39%[activator]	-19%	3%
Cc1cnc(NC(=O)c2cc3c(C)nn(Cc4ccccc4Cl)c3s2)s1	2%	-16%	0%	-8%	-1.7%	-5%	2%	7%
CC(C)N(Cc1nc(-c2ccccc2)no1)C(=O)C(Cl)(Cl)Cl	?	?	.	0%	.	-24%	0%	-14%
CCS(=O)(=O)N1CCc2cc(C(=O)Nc3cc([N+](=O)[O-])ccc3C)ccc21	7%[46.1 µM]	0%[46.1 µM]	-5%	.	-4.9%	?	.	.
Cc1cc(C)nc(NS(=O)(=O)c2ccc(N)cc2)n1	13%&13%&13%&13%&13%&13%&13%&13%&13%&13%	7%	-5%&3%&-4%&-9%	1%&-3%	4.7%&4.3%&3.6%&-0.6%	31%&53%[activator]	4%[18.4 µM]	3%&6%
COc1ccc(OC)c2c1cc(C(=O)N[C@@H](C)C(=O)N[C@@H](C(=O)O)c1ccccc1)n2C	9%[46.1 µM]	11%[46.1 µM]	.	1%	.	-8%	2%	6%
COc1ccc(C(CNC(=O)c2cc(S(=O)(=O)Nc3cccc(C)c3)ccc2C)N2CCCC2)cc1 (stereo not drawn)	?	-24%	.	.	.	16%	-11%	.
CCc1ccc(NC(=O)c2nn(-c3ccc(C)cc3)c(=O)n(C)c2=O)cc1	.	3%[46.1 µM]	7%	.	-2.2%	8%	.	.
CN(CCC#N)C(=O)COc1ccc(Br)cc1Cl	-3%[46.1 µM]	-8%[46.1 µM]	.	-2%	.	-12%	3%	15%
Cc1ccc(C)c(Cn2nnc3c(=O)[nH]c(C(=O)NCc4ccco4)nc32)c1	-17%	-18%[14.3 µM]	5%	2%	-6.4%	-11%	12%	-11%
CCCOc1ccccc1N/C(=N/c1nc(C)cc(C)n1)NC(=O)COc1ccc(OC)cc1	?	?	30%	2%	0.6%	?	6%	7%
N#CCCn1c(-c2nonc2NC(=O)c2ccccc2Cl)nc2ccccc21	?	-12%	-4%	4%	-7.5%	11%	6%	-7%
CC(=O)OCCNc1cc(Sc2nc3ccccc3[nH]2)c2nonc2c1[N+](=O)[O-]	24%	0%	-21%	-15%	-25%	35µM*	-27%	?
CN1C(=O)c2oc3ccc(Br)cc3c(=O)c2C1c1ccncc1 (stereo not drawn)	.	.	-10%	3%	-2.4%	.	.	2%
O=C(CN(C(=O)CCC(=O)Nc1nccs1)c1cccc(F)c1)NCc1ccc(F)cc1	-17%[46.1 µM]	-20%[46.1 µM]	.	1%	.	4%	8%	-4%
O=C(O)Cn1cc(/C=C2\SC(=O)N(c3ccccc3)C2=O)c2ccccc21	-2%[46.1 µM]	28%[46.1 µM]	.	0%	.	2%	6%	6%
CCOc1ccc(CN(C)C(=O)CNC(=O)C2CCCCC2)cc1	3%[46.1 µM]	-9%	.	2%	.	-16%	0%	14%
Nc1cc(=O)[nH]c(SCc2ccc(Cl)cc2Cl)n1	.	.	.	1%	.	?	-8%	8%
COC(=O)C(C)n1cnc2c(nnn2-c2cccc(OC)c2)c1=O (stereo not drawn)	?	-4%[46.1 µM]	.	3%	.	16%	8%	1%
CCC(=O)Nc1sc(C(=O)Nc2ccccc2)c(C)c1C(=O)OC	.	.	.	0%	.	16%	1%	-14%
CCOc1ccc2c(c1)ncn2Cc1ccccc1	-13%[46.1 µM]	0%	.	14%	.	20%	-6%	.
CCN(CC)CCSc1nc2ccccc2c(=S)n1-c1ccccc1	?	-28%	.	-10%	.	-22%	-8%	.
COc1cc2c(cc1OC)C(COc1ccc3c(C)cc(=O)oc3c1)N(C(=O)c1ccco1)CC2 (stereo not drawn)	?	?	?	8%	6.2%	-11%	-2%	-30%
Cc1nnc2nc(-c3ccccc3)nc(-c3ccccc3)n12	.	.	.	-2%	.	9%	4%	0%
COc1cc(C(=O)NCC(c2ccco2)N2CCc3ccccc32)cc(OC)c1OC (stereo not drawn)	?	?	.	0%	.	-3%	1%	.
CCOCCCNC(=O)C(c1ccc(OC)cc1)N(Cc1cccs1)C(=O)c1ccccc1O (stereo not drawn)	-13%[46.1 µM]	?	15%	2%	0.2%	27%&28%	-14%	.
CCN(c1ccccc1)S(=O)(=O)c1ccc(Cl)c(NC(=O)CSc2nnc(C)s2)c1	.	.	.	0%	.	?	-2%	1%
Cc1cc(Cl)ccc1OCC(=O)Nc1ccccc1C(=O)N1CCOCC1	?	2%	.	2%	.	-27%	4%	-14%
CCOc1ccc(Cl)cc1/C=N/NC(=O)CNC(=O)c1ccccc1	?	?	-10%	28%	-8.8%	-5%	3%	-7%
CSc1nn(Cc2ccc(F)cc2)c(N(C(C)=O)C(C)=O)c1S(=O)(=O)c1ccccc1	?	-27%[46.1 µM]	15%	.	-4.5%	11%	.	.
O=C(Cn1cnc2cc(Cl)ccc2c1=O)Nc1ccc2c(c1)OCO2	16%	-1%	4%	-5%	15%	-25%	3%	-1%
c1cncc(-c2ccnc3ncnn23)c1	27%[46.1 µM]	10%[46.1 µM]	2%	1%	-1.8%	0%	5%	14%
Cc1cc(C)nc(NC(=O)c2ccc(C)o2)n1	.	.	.	-7%	.	-29%	-6%	9%
CS(=O)(=O)Nc1ccc2c(c1)C(=O)OC2	-10%	2%	3%	3%	2.5%	2%	15%	1%
Cc1ccc(NC(=O)COC(=O)Cc2c[nH]c3ccccc23)cc1F	?	7%	.	0%	.	-3%	-13%	.
COc1cccc(-c2noc(-c3cccs3)n2)c1	?	?	-7%	-2%	-3.8%	-5%	-21%	-2%
CC(C)C[C@@H](NC(=O)[C@H]1CCCN1C(=O)Cc1ccccc1)C(N)=O	.	.	.	-1%	.	18%	2%	8%
Cc1ccc(N2C(=O)C(Cl)=C(N3CCOCC3)C2=O)cc1Cl	-75%	-5%	7.9µM*	-18%	7.1µM*	-17%	18%	3%
N#CC[C@H](Cc1ccccc1)N1CC[C@@H](NC(=O)OCc2ccccc2)CCC1=O	.	.	.	3%	.	-3%	3%	-3%
Cc1cccc(CSc2cccc3cccnc23)c1	?	1%	8%	-27%	-2.4%	-18%	?	-125%
Cc1nc2cccc(C(=O)NC3CCCCC3)c2o1	0%	1%	8%	2%	2.1%	-19%	?	-8%
COC(=O)c1ccc(-n2cncn2)c(F)c1	1%	4%	-3%	-2%	9.9%	9%	-2%	7%
FC(F)(F)c1cccc(OCc2nnc3n2CCC3)c1	-4%[46.1 µM]	.	.	3%	.	0%	-1%	.
O=C(Cn1cnc2ccccc2c1=O)c1ccccc1	4%	9%	0%	-23%	-3.3%	26%	-4%	-3%
COc1cc(NC(=O)c2cccs2)c(C(=O)OCC(=O)NC(=O)NC(C)(C)C)cc1OC	4%[46.1 µM]	14%	?	-4%	-14%	-23%	-3%	4%
COc1cc(-c2nn3c(-c4cccc(C)c4)nnc3s2)cc(OC)c1OC	-14%	-6%	?	-4%	-0.5%	8%	14%	?
CCCCSCc1ccc(C(=O)O)o1	?	1%	-5%	-4%	-3.2%	-10%	-4%	-3%
CCn1cc(C(=O)NCc2cccs2)c(=O)c2ccc(C)nc21	-18%	23%	-3%	11%	3.3%	-18%	-3%	3%
O=C(CSc1nc2ccccc2s1)N1c2ccccc2Sc2ccccc21	?	9%	16µM*	14%	2.2%	-22%	2%	16%
CS/C(Nc1cc(Cl)ccc1Cl)=C(/C#N)C(=O)c1ccco1	?	5µM*	.	-3%	.	?	-16%	-4%

Screening results as filed in PubChem.
